miR-21 FLuc = qHTS Assay for Modulators of miRNAs and/orActivators of miR-21; AID 2288, 2010; HeLa miR-21 FLuc reporter, luciferase, 48 h; Potency, µM (series often up to 38.3 µM), for the others: at the highest dose reporter change, positive = more light; 340,000 tested, under 10 active; active = well fitted rising curve with a large enough effect; inconclusive = small, poorly fitted or top-dose-only effect; inactive = no such curve, though single readings can be large or run the other way;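 note: % of control where 0% means no effect; miR-21 action dims this reporter so a rising signal means less miR-21 action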
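HeLa cells stably expressing CMV-driven firefly luciferase with a downstream miR-21 binding sequence, endogenously expressing miR-21, were treated with titrations (up to about 40uM final) for 48 hours at 37 degree Celsius. Luciferase luminescence was read after lysis.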
Rango dissoc inh = qHTS Assay for Inhibitors of RanGTP induced Rango (Ran-regulated importin-beta cargo) - Importin beta complex dissociation | AID 540253, 2011 | Potency, µM (titrated, usually from 46.1 µM), for inactives: top-dose activity change, negative = inhibition | Snurportin-1 (Homo sapiens) + GTP-binding nuclear protein Ran (Homo sapiens) + Importin … | Biochemical FRET Rango-importin beta, RanGTP-induced dissociation | actives 0.071% (n = 340,000); active means falling FRET ratio curve, often poorly fitted, with flat reads before Ran was added; inconclusive means other falling curves, or compound fluorescence or quenching; inactive means flat or rising ratio curve;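 note: potency is the fitted concentration of half-maximal effect; % of control where 0% means no effect; nearly all actives have a fitted effect of over 45% in size; -100% = wells without RanGTP and RCC1; the record marks most hits as doubtful in a second field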
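Quantitative HTS using a FRET biosensor: 0.1 uM Rango, 0.25 uM importin beta, 0.6 uM Ran, 2 mM GTP, 0.2 uM RCC1 final, PBS with DTT, Tween-20 and BSA. Post-read taken 45 min after Ran addition.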
Rango-impB inh = qHTS Assay for Inhibitors of Rango (Ran-regulated importin-beta cargo) - Importin beta complex formation; Importin subunit beta-1 (Homo sapiens), Q14974; Rango CFP/YFP FRET sensor + importin beta, 45 min; Potency, µM (series often up to 92.2 µM), for inactives: top-dose inhibition of complex formation; actives 0.031% (n = 340,000); AID 540263, 2011; active = rising FRET ratio curve, often small or poorly fitted; inconclusive = mostly compound fluorescence or quenching in the first reads; inactive = flat curves in all reads;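 note: potency is the fitted concentration of half-maximal effect; 0% = DMSO wells and 100% = buffer wells lacking importin beta; nearly all actives have a fitted effect of over 15% in size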
Target sequence (Q14974 whole entry, looked up): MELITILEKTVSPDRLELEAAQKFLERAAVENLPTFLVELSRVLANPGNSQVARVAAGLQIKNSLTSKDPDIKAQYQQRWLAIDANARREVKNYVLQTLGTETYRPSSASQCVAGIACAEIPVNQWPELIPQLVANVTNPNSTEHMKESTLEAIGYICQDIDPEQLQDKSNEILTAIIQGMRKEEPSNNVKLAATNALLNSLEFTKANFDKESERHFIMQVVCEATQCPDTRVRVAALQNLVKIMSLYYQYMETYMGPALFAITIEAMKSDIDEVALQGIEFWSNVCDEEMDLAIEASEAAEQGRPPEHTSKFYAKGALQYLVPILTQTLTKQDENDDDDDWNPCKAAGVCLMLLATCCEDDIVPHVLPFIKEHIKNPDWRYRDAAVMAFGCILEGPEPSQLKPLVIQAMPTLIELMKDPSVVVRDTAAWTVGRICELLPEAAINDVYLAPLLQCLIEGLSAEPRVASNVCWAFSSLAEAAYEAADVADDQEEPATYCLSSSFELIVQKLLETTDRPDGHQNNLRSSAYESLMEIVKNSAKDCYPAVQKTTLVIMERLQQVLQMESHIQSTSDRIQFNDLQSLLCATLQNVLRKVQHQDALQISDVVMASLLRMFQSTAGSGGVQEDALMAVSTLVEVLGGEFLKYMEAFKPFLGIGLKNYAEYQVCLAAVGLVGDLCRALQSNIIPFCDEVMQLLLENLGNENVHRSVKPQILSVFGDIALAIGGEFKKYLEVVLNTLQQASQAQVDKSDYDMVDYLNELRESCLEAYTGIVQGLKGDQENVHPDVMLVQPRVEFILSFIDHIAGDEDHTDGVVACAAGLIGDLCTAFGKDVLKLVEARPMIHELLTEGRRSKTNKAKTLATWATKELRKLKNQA
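FRET biosensor (snurportin 1 IBB flanked by EYFP and cerulean), 50 nM, with compound 5 min, then 0.125 microM importin beta in PBS, 1 mM DTT, 0.02% Tween-20, 0.1% BSA. CFP/YFP ratio read after 45 min at room temperature; pre-read flags interference.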
GLA inh pH 4.5 = qHTS Assay for Inhibitors of Human alpha-Galactosidase at pH 4.5. Alpha-galactosidase A (Homo sapiens), P06280. purified enzyme, 4-MU-alpha-Gal fluorescence, pH 4.5. activity change, negative = inhibition, % at 105 µM. 230,000 tested, under 10 active; inconclusive = small, poorly fitted or top-dose-only inhibition, or a rising curve; inactive = flat fitted curve, though single readings scatter; no compound was filed as active;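 note: 0% = full activity with enzyme and -100% = basal without enzyme; dose as in the result columns while the protocol names 77 µM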
An asterisk follows results filed as active; ? = inconclusive; . = no result given. Only part of the results is shown; count on the stated rates, not on these rows.

SMILES | miR-21 FLuc | Rango dissoc inh | Rango-impB inh | GLA inh pH 4.5
O=C(Cc1ccccc1)NCC(=O)OCC(=O)c1ccc(OC(=O)c2ccccc2)cc1 | -1% | -4% | 0.4% | -18
Oc1ccc(CN2CCN(Cc3ccccc3)CC2)c2cccnc12 | 0% | -8% | 0.0% | 0
O=C(c1cc2ccccc2o1)N1CCN(S(=O)(=O)c2cccs2)CC1 | -5% | -7% | 1.0% | -5
Cc1ccc(Oc2c(C)nc(-c3ccccc3)[nH]c2=O)cc1 | -2% | 1% | -3.5% | 2
Cc1ccc(Cn2c(CN(C)Cc3ccccc3)nc3c2c(=O)n(C)c(=O)n3C)cc1 | -3% | -4% | -2.0% | -4
CC1=NN(C(=O)c2ccccc2Br)C(O)(c2cccnc2)C1 (stereo not drawn) | 0% | -8% | 4.4% | 5
CC(C)(C)NS(=O)(=O)c1ccc(NC(=O)Cc2ccccc2[N+](=O)[O-])cc1 | -27% | -8% | 1.2% | 0
Cc1ccc(-c2c[n+](CC(=O)OCc3ccccc3)c3n2CCC3)cc1 | -6% | -1% | -1.2% | -2
COc1ccc(C2CC2/C(=N/O)c2ccccn2)cc1 (stereo not drawn) | -32% | 14% | 0.0% | 3
Cc1ccc(S(=O)(=O)N/N=C\c2cc3c(cc2Br)OCO3)cc1 | 10% | -4% | -5.7% | -6
COc1ccc(C(=O)COC(=O)c2cccs2)cc1 | . | 3% | 1.9% | .
Cc1sc2ncnc(N3CCC(C(=O)NNC(=O)COc4ccccc4Cl)CC3)c2c1C | . | -8% | -0.5% | .
CNS(=O)(=O)c1cccc(C(=O)OCC(=O)Nc2ccc(Cl)cc2F)c1 | 4% | -3% | 2.4% | 1
Cc1csc(NC(=O)c2cc(=O)[nH]c3ccccc23)n1 | -7% | ? | -4.0% | 5
CCOc1ccccc1CN1CCCC(CNS(=O)(=O)c2ccc(OC)cc2)C1 (stereo not drawn) | 3% | 11% | -0.2% | .
COc1ccc(C2/C(=C(/O)c3ccc(Br)cc3)C(=O)C(=O)N2C)cc1 (stereo not drawn) | 0% | 1% | -0.1% | .
Cc1c(F)cccc1NC(=O)CCC(=O)O | -1% | 5% | -3.4% | -3
Cc1ccccc1-c1cc(-c2ccccc2O)n[nH]1 | -42% | ? | 5.4% | -4
Cc1sc(NC(=O)C2CSC3(C)CCC(=O)N23)nc1-c1ccccc1 (stereo not drawn) | . | -3% | 1.4% | .
O=C(NC12CC3CC(CC(C3)C1)C2)c1ccco1 | -7% | -11% | 0.9% | .
CC(C)(C)C(=O)Nc1nnc(SCC(=O)NC2CCCCC2)s1 | -4% | 7% | -0.2% | .
Cc1cc(C)n(CC(=O)NNC(=O)COc2ccc(Cl)cc2Cl)n1 | . | -3% | ? | .
Cc1cc(C)nc(N(C#N)Cc2cccc([N+](=O)[O-])c2)n1 | -13% | 8% | -2.2% | 1
CCN1C(=O)C(O)(CC(=O)c2ccccn2)c2ccccc21 (stereo not drawn) | -1% | -4% | 4.9% | -9
Cc1nc2ccccc2nc(C)c1=NOCc1cccc(F)c1 | -24% | -1% | 3.0% | 1
O=C(COc1ccccc1)N1c2ccccc2Sc2ccccc21 | 20% | 1% | -1.4% | 11
COc1cccc(C(c2sc3nc(C)nn3c2O)N2CCC3(CC2)OCCO3)c1 (stereo not drawn) | 2% | 10% | -1.2% | 2
O=C(c1ccccc1SCc1ccc(F)cc1)N1CCOCC1 | -2% | 1% | 1.6% | 5
COc1ccc(CNc2ncc(-c3ccc(F)cc3)n2C)c2ccccc12 | 15% | 0% | 0.9% | .
COc1cccc(N2C(=O)C3CC=C(Cl)CC3C2=O)c1 (stereo not drawn) | -3% | -28% | ? | -1
O=C(NNC(=S)NC1CCCCC1)c1ccccc1Br | -27% | 11% | 0.0% | .
O=C(Cc1c(O)c2ccccc2[nH]c1=O)NCc1ccc(F)cc1 | -10% | 1% | -1.6% | 4
CC(=O)C1=CN(Cc2ccccc2)CCC1=O | . | -12% | -3.0% | .
COc1ccc(/C=C2\SC(=O)N(CC(=O)Nc3ccc(F)cc3)C2=O)cc1O | -11% | -8% | -4.0% | .
O=C(c1ccccc1S(=O)(=O)NCc1ccccc1)N1CCCC1 | -2% | 52% | 1.4% | -3
Cc1c(C(=O)N2CCc3ccccc3C2)oc2ccc(S(=O)(=O)N3CC(C)CC(C)C3)cc12 (stereo not drawn) | 0% | -9% | -4.3% | -5
CCOCCCN(C)C1CCN(C(=O)c2oc3ccccc3c2NC(=O)COc2cccc(C)c2)CC1 | 3% | -23% | -4.2% | .
Cc1c(C(=O)N2CCN(c3ccc([N+](=O)[O-])cc3)CC2)oc2ccccc12 | . | 0% | ? | .
O=C(CCCCl)NC(=S)Nc1ccc(N2CCOCC2)cc1 | -51% | 6% | 1.0% | -7
CCCCn1c(=S)[nH]c2ccccc2c1=O | -9% | -1% | 1.5% | 3

Twelve entries out of the list, sorted by SMILES length, high to low:
SMILES | miR-21 FLuc | Rango dissoc inh | Rango-impB inh | GLA inh pH 4.5
CCOCCCN(C)C1CCN(C(=O)c2oc3ccccc3c2NC(=O)COc2cccc(C)c2)CC1 | 3% | -23% | -4.2% | .
Cc1c(C(=O)N2CCN(c3ccc([N+](=O)[O-])cc3)CC2)oc2ccccc12 | . | 0% | ? | .
COc1ccc(/C=C2\SC(=O)N(CC(=O)Nc3ccc(F)cc3)C2=O)cc1O | -11% | -8% | -4.0% | .
COc1cccc(C(c2sc3nc(C)nn3c2O)N2CCC3(CC2)OCCO3)c1 (stereo not drawn) | 2% | 10% | -1.2% | 2
Cc1cc(C)nc(N(C#N)Cc2cccc([N+](=O)[O-])c2)n1 | -13% | 8% | -2.2% | 1
Cc1cc(C)n(CC(=O)NNC(=O)COc2ccc(Cl)cc2Cl)n1 | . | -3% | ? | .
O=C(Cc1c(O)c2ccccc2[nH]c1=O)NCc1ccc(F)cc1 | -10% | 1% | -1.6% | 4
O=C(c1ccccc1S(=O)(=O)NCc1ccccc1)N1CCCC1 | -2% | 52% | 1.4% | -3
COc1cccc(N2C(=O)C3CC=C(Cl)CC3C2=O)c1 (stereo not drawn) | -3% | -28% | ? | -1
O=C(CCCCl)NC(=S)Nc1ccc(N2CCOCC2)cc1 | -51% | 6% | 1.0% | -7
O=C(c1ccccc1SCc1ccc(F)cc1)N1CCOCC1 | -2% | 1% | 1.6% | 5
O=C(NNC(=S)NC1CCCCC1)c1ccccc1Br | -27% | 11% | 0.0% | .

The listing continues:
SMILES | miR-21 FLuc | Rango dissoc inh | Rango-impB inh | GLA inh pH 4.5
COCC(=O)Nc1ccc([N+](=O)[O-])cc1OC | -10% | 10% | -2.9% | -10
O=C(NCCO)c1cc([N+](=O)[O-])cc2c1C=Cc1ccccc1O2 | -1% | 5% | 1.3% | 1
CCCCNc1ccc2c(c1)C1CC2CCN1C(=O)OCc1ccccc1 (stereo not drawn) | . | ? | 0.7% | .
CCS(=O)(=O)c1ccc2c(c1)N(S(=O)(=O)c1ccc(C)cc1)CC(C(=O)O)O2 (stereo not drawn) | 0% | 14% | -1.8% | 3
C=CCNC(=O)c1c(CSc2ccc(F)cc2)noc1C(=O)NCCC | . | 1% | -5.7% | .
COc1ccc2c(CC(=O)N3CCc4ccccc43)coc2c1 | -62% | -5% | 0.3% | -2
COc1ccc(S(=O)(=O)NC(N)=NCCc2ccc(OC)c(OC)c2)cc1 | -3% | . | . | 2
Cc1[nH]c(C)c(S(=O)(=O)N2CCc3ccccc32)c1C(=O)N1CCCCC1 | 1% | 4% | 2.9% | .
COc1cccc(C(=O)NCc2n[nH]c(=S)n2-c2cccc(C)c2)c1 | -5% | -8% | 0.7% | -8
CCOC(=O)C1CN(S(=O)(=O)c2ccc(OC)cc2)c2cc(CC(=O)OC)ccc2O1 (stereo not drawn) | -3% | 7% | 1.0% | -2
O=C(CN1C(=O)C(=O)N(Cc2ccccc2)C1=O)Nc1ccc(F)c(Cl)c1 | -1% | -1% | -3.9% | 1
CCN(CC(=O)Nc1ccc(NC(C)=O)cc1)CC(=O)Nc1ccc(F)c(Cl)c1 | 14% | -3% | -1.0% | 10
S=C(Nc1ccc(Cl)cc1)c1nc2ccccc2[nH]1 | 1% | 2% | 2.2% | -1
O=C(NCc1ccccc1)/C(=C/c1ccco1)NC(=O)c1ccco1 | 0% | ? | ? | -3
O=C1CC(c2ccc(Cl)cc2)n2nc(N3C(=O)c4ccccc4C3=O)nc2N1 (stereo not drawn) | -8% | 32% | -5.5% | 4
O=C(c1cc(Br)c[nH]1)N1CCCCC1 | 1% | -3% | -0.4% | .
COC(=O)[C@]1(C)N[C@H](c2ccc(-c3ccc(OC)cc3)cc2)[C@@H]2C(=O)N(C)C(=O)[C@@H]21 | . | 2% | 3.9% | .
O=C(CSc1nc2ccccc2c(=O)n1CCCN1CCOCC1)NCCc1ccccc1 | . | -8% | -0.4% | .
CC1(C)OC(=O)N(c2ccccc2)C12C=Cc1c(ccc3ccccc13)O2 (stereo not drawn) | -4% | -10% | 2.0% | -5
O=C(NC1CCCCC1)c1cccc2c1C(=O)c1ccc(N3CCCC3)cc1S2(=O)=O | . | ? | ? | .
CNC(=O)Nc1cccc(C(F)(F)F)c1 | -13% | -14% | -6.4% | -6
O=C(NN=Cc1ccccc1Cl)c1cccc2ccccc12 | . | 3% | -4.1% | .
COc1cc(NC(=O)Cc2cccs2)cc(OC)c1 | -1% | 20% | 3.1% | -14
COC(=O)c1cc(Br)c(=O)n(CCN2CCCC2)c1 | -3% | -6% | ? | -9
Cc1cc(C)n2nc(N)nc2n1 | . | -13% | 2.7% | .
Cc1cnnn1-c1ccc(C(=O)CCl)cc1 | 0% | -13% | 2.6% | 1
CC1CN(C(=O)CCc2ccccc2)C(C)CN1C(=O)CCc1ccccc1 (stereo not drawn) | -5% | 0% | 0.1% | 4
O=C(NCc1ccncc1)/C(=C/c1cccc([N+](=O)[O-])c1)NC(=O)c1ccccc1 | -4% | 5% | -1.0% | -26
CCCCn1nnnc1SCC(=O)NC1CCCCC1 | -4% | 6% | -1.3% | .
Cc1nc(NC(=O)CSc2nncs2)c(Cl)cc1Cl | -12% | 0% | -0.7% | 1
CCC(C)[C@H](NC(=O)NCc1ccc(S(N)(=O)=O)cc1)C(=O)OC (stereo partly drawn) | -1% | -6% | -1.9% | -6
O=C(Nc1nc2ccccc2[nH]1)c1cccc(F)c1 | 10% | -3% | -0.8% | .
c1ccc2c(-c3ccc(OCCN4CCCCC4)cc3)c(-c3ccsc3)sc2c1 | . | -5% | 4.0% | .
O=C1C2CC=C(Cl)CC2C(=O)N1CC1OCCc2ccccc21 (stereo not drawn) | -18% | ? | ? | 2
COc1cccc(NC(=O)CNC(=O)c2cccs2)c1 | -37% | -9% | -2.0% | 3
C=CCSc1nc(C)c(CCCC)c(=O)[nH]1 | -4% | -12% | 0.3% | 4
COc1cccc(C(=O)Nc2ccc(C(=O)O)cc2)c1 | -14% | -1% | -5.2% | -5
N=c1c(C(=O)NCC2CCCO2)cc2c(=O)n3ccccc3nc2n1Cc1ccc(F)cc1 (stereo not drawn) | 2% | ? | ? | .
O=C(O)C1CCC(Cn2c(SCc3cc(=O)n4cc(Cl)ccc4n3)nc3ccsc3c2=O)CC1 (stereo not drawn) | -6% | 4% | 2.5% | 5
CCCc1cc(=O)[nH]c(SCC(=O)N(C)CC(=O)Nc2ccccc2CC)n1 | 0% | -8% | 0.7% | -2
COC(=O)/C=C(\C)NC(=O)c1ccc(F)cc1 | -4% | -14% | 0.1% | -7
Cc1ccc(CNC(=O)COC(=O)CSc2cc(C)c(Br)cc2C)cc1 | -2% | 11% | 5.3% | 1

High-throughput results deposited in PubChem by National Center for Advancing Translational Sciences (NCATS).
